Assay outcomes from PubChem.
H5N1 CPE: antiviral screen in MDCK cells, H5N1 avian flu; 0.07% of 96,000 active; inhibition, % at 50 µM; cytopathic effect, luminescence, 72 h; active compounds read high; no value below 0 was filed and about half of the inactive calls have no number; reference of the scale not given here; in the data active = inhibition above about 25%
Starred values were filed as active, the others as inactive; i = inactive.

molecule	H5N1 CPE
C=CCNc1nc(-c2ccccc2)c(C(=O)OCC)cc1C#N	i
Clc1ccc(-c2nc3cnccn3c2Nc2ccc3c(c2)OCO3)cc1	0.5
COC(=O)CCN(C(C)=O)c1ccc(N)cc1	0.3
Cc1cccc(NC(=O)CSc2nnc(-c3ccccc3)n2N)c1	0.3
CCN1CCN(C(=O)CN(Cc2ccccc2)S(C)(=O)=O)CC1	i
Oc1c(C(c2cccs2)N2CCOCC2)sc2ncnn12 (stereo unspecified)	i
COc1cccc(NC(=O)CSc2nnc(-c3cccs3)n2C)c1	i
CC(Cl)C(=O)Nc1ncc(C(F)(F)F)cc1Cl (stereo unspecified)	i
CCN1CCN(Cc2c(O)ccc3c(=O)c(-c4ccc(OC)c(OC)c4)c(C(F)(F)F)oc23)CC1	0.9
CCCN(CCC)CC(O)CN(c1cc([N+](=O)[O-])ccc1OC)S(=O)(=O)c1ccccc1 (stereo unspecified)	i
CCCc1cc(=O)oc2c(C)c(O)c(CN3CCCCC3)cc12	3.6
O=C(Cc1coc(-c2ccc(F)cc2)n1)NC1CCCCC1	0.4
O=C1NC(=O)C2(C(=O)N1)C(c1ccc(F)cc1)NC(=S)NC2c1ccc(F)cc1 (stereo unspecified)	0.9
Cc1cc(N)n(-c2ccc3ccccc3c2)n1	i
O=S(=O)(c1ccccc1)N1CCCC1c1nc2ccccc2s1 (stereo unspecified)	1.5
CC(C)CC(=O)Nc1ccccc1N1CCOCC1	i
CCC(c1nnnn1Cc1ccc2c(c1)OCO2)N1CCN(c2ccccc2)CC1 (stereo unspecified)	1.2
O=C(Nc1ccc2nc(-c3ccco3)[nH]c2c1)c1ccco1	0.4
COC(=O)c1ccc(Cn2cc(Cl)cn2)cc1	i
COc1ccc(S(=O)(=O)N2CCCN(CC(=O)Nc3ccc(OC)c(Cl)c3)CC2)cc1	2.6
COc1ccc(-n2ncc3c(N4CCN(c5cc(C)ccc5C)CC4)ncnc32)cc1	i
O=C(CCN1CCc2ccccc2C1)Nc1ccccc1	i
CCOC(=O)c1ccc(NC(=O)CCc2ccc(C)o2)cc1	0.2
CCn1c(/C=N/n2cnnc2)nc2ccccc21	0.6
Clc1cccc(-c2cc3nc4c(c(NCc5ccco5)n3n2)CCCC4)c1	4.0
O=C(CSc1ncccn1)c1ccccc1Br	2.4
COc1ccc(Cl)cc1C(=O)Nc1ccc(S(=O)(=O)N2CCCC2)cc1	i
CCOC(=O)C1=C(C)NC(=O)CC1c1cc2c(cc1Br)OCO2 (stereo unspecified)	0.1
Cn1c(SCC(=O)c2ccc(F)cc2)nc2cccnc21	i
CCCC(C)C(=O)Nc1ccc(Cl)cc1Cl (stereo unspecified)	0.2

Exported as labelled records: 2 of the compounds above
CCC(c1nnnn1Cc1ccc2c(c1)OCO2)N1CCN(c2ccccc2)CC1 (stereo unspecified)
- H5N1 CPE = 1.2

O=C(Nc1ccc2nc(-c3ccco3)[nH]c2c1)c1ccco1
- H5N1 CPE = 0.4

(further entries)
molecule	H5N1 CPE
COc1ccc(OC2C(=O)N(c3ccc(F)cc3)C2c2ccc(OC)c(OC)c2)cc1 (stereo unspecified)	i
COc1ccc(S(=O)(=O)Cc2ccc(C(=O)NCc3cccnc3)o2)cc1	0.4
O=C(NC1(C(F)(F)F)C(=O)Nc2c1c(=O)[nH]c(=O)n2Cc1ccccc1)c1ccco1 (stereo unspecified)	i
Cc1ccccc1C(=O)Nc1ccc(S(=O)(=O)N2CCN(C)CC2)cc1	i
Nc1nc2n(n1)C(c1ccc(Cl)cc1)CC(c1ccc(F)cc1)N2 (stereo unspecified)	i
Cc1cc(NC(=O)CSc2nc(C(C)C)nc3c2c(=O)n(C)c(=O)n3C)no1	1.9
Oc1ccc(-c2nnc(-c3ccc(O)cc3)nn2)cc1	i
C/C(CC(=O)Nc1ccccn1)=N\NC(=O)C(=O)Nc1cccc(C)c1	0.6
O=C1N=C(N2CCOCC2)S/C1=C/c1ccc(-c2ccccc2Cl)o1	2.2
FC(F)(F)c1cnc2c(-c3ccc(Cl)cc3Cl)noc2c1	i
Cc1ccn(C(=O)c2cc3ccccc3oc2=O)n1	i
Cc1ccc(SCCNC(=S)Nc2cc(C)cc(C)c2)cc1	0.5
CCc1c(C(=O)Nc2ncn(Cc3cccc(C)c3)n2)csc1C	i
COc1ccccc1C(c1nnnn1Cc1ccccc1)N1CCN(c2nc3ccccc3s2)CC1 (stereo unspecified)	4.5
CCCC(C)C(=O)Nc1ccc(Cl)cn1 (stereo unspecified)	1.5
CC1(C)CC(NC(=O)COc2ccc3ccccc3c2)CC(C)(C)N1	0.3
C=Cn1nc(C)c2ccccc2c1=O	0.6
O=C(CSc1ncn[nH]1)c1ccc2c(c1)OCCO2	i
Cc1ccc(OCC(=O)n2cnnc2N)c(C)c1	0.1
CC(O)c1cccc(NC2=CC(=O)CC(C)(C)C2)c1 (stereo unspecified)	0.3
CCc1nnc(NC(=O)CSc2nnc(Cc3ccccc3)n2Cc2ccccc2)s1	0.9
COc1ccc(-n2c(SCC(=O)Nc3ccc4c(c3)OCO4)nc3ccccc3c2=O)cc1	i
O=C(CN1C(=O)C2C3C=CC(C3)C2C1=O)N1CC(=O)N(CCc2ccccc2)C(=O)C1 (stereo unspecified)	i
O=C(O)C1C2C=CC(C2)C1C(=O)NCCc1ccncc1 (stereo unspecified)	0.7
O=C(O)CCN1C(=O)C(=C2CCCCCC2)SC1=S	1.0
COc1cc(NC(=O)c2ccco2)c(OC)cc1NC(=O)CCC(=O)Nc1cc(C)ccc1C	i
Cc1ccc(-c2nnc(N3CCOCC3)c3ccccc23)cc1S(=O)(=O)NCC1CCCO1 (stereo unspecified)	i
COc1ccc(-c2nc3ccccc3c(=O)n2CCCN2CCOCC2)cc1	0.3
COc1ccc(OC)c(NC(=O)CSc2nnc(CNc3ccc(F)cc3)o2)c1	0.5
CCOC(=O)CNC(=O)CSc1nnc(Cn2c(=O)sc3ccccc32)n1C	i
N#Cc1nc(COc2ccc(F)cc2)oc1N1CCN(Cc2ccccc2)CC1	1.1
O=c1c2cnn(-c3ccccc3)c2ncn1Cc1ccccc1	1.0
Cc1ccc(Cn2ccc(NC(=O)c3cc(-c4cccc(Cl)c4)on3)n2)cc1	i
CCCCCCOc1ccc(N2C(=O)CC(N3CCC(C(=O)OCC)CC3)C2=O)cc1 (stereo unspecified)	0.3
COc1ccc(-c2ccc(OC)cc2C(=O)O)cc1	i
Cn1ncc(N=Cc2ccccc2O)c1C(=O)N1CCOCC1	i
CCNc1nc(N2CCOCC2)nc(N(c2ccccc2)c2ccccc2)n1	i
CC(C)(C)NC(=O)NC(=O)COC(=O)C1=COCCO1	i
O=C(Nc1ccccc1)c1ccccc1OCC(O)CN1C(=O)c2ccccc2S1(=O)=O (stereo unspecified)	0.5
O=C1Nc2ccccc2SC(c2ccccc2)C1O (stereo unspecified)	i
COCCCNC(=O)Cn1nnc(-c2ccc(NC(=O)c3ccccc3OC)cc2)n1	0.9
Cc1ccc(S(=O)(=O)N2CCOCC2)cc1C(=O)NCc1ccc(F)cc1	0.5
CCOC(=O)C1CCCN(Cc2ccccc2Cl)C1 (stereo unspecified)	0.1
CC1(C)Cn2c(nnc2-c2cccc(O)c2)S1	i
CC(=O)Nc1ccc(NC(=O)CN2CCCC(C)C2)c(Cl)c1 (stereo unspecified)	0.4
O=C(CCS(=O)(=O)c1ccccc1)Nc1nccs1	4.5
CCCc1nc2ccccc2c(C(=O)OCc2nnc(-c3cc(OC)c(OC)c(OC)c3)o2)c1CC	i
O=C(O)C(Cc1ccccc1)n1cnnn1 (stereo unspecified)	i
O=C(O)CCCC(=O)NCCCc1ccccc1	0.1
CCCCCCC1CC(C)(/C(C)=N/NC(N)=O)OC1=O (stereo unspecified)	i
COc1ccc(S(=O)(=O)Nc2ccccc2OC)cc1C	0.4
COc1cc(NS(=O)(=O)c2cc(C)ccc2OC)c(OC)cc1Cl	2.1
CC(=O)c1c(C)nn(C(C)CC(=O)O)c1C (stereo unspecified)	0.7
CCCNC(=S)Nc1ccc(Br)cc1	i
COc1ccc(C2C(C(=O)N3CCN(c4ccc(OC)cc4)CC3)c3ccccc3C(=O)N2C)cc1 (stereo unspecified)	0.3
Cc1cc(C)c(C#N)c(SCC(=O)c2cccs2)n1	i
CCOC(=O)c1cnn(-c2cc(C)nc3c(-c4ccccc4)cnn23)c1N	i
O=C(CSc1ccccn1)Nc1cccc(NC(=O)CSc2ccccn2)n1	0.5
Cc1occc1C(=O)Nc1ccc(S(=O)(=O)N2CCN(C)CC2)cc1	0.1
COc1ccc(C(CC(=O)N2CCC3(CC2)OCCO3)NS(=O)(=O)c2ccc(C)cc2)cc1 (stereo unspecified)	0.0

Six entries out of the list, sorted by formula weight, largest number first.
molecule	H5N1 CPE
CCN1CCN(Cc2c(O)ccc3c(=O)c(-c4ccc(OC)c(OC)c4)c(C(F)(F)F)oc23)CC1	0.9
N#Cc1nc(COc2ccc(F)cc2)oc1N1CCN(Cc2ccccc2)CC1	1.1
CC1(C)CC(NC(=O)COc2ccc3ccccc3c2)CC(C)(C)N1	0.3
Oc1c(C(c2cccs2)N2CCOCC2)sc2ncnn12 (stereo unspecified)	i
O=C(CSc1ncn[nH]1)c1ccc2c(c1)OCCO2	i
C=Cn1nc(C)c2ccccc2c1=O	0.6

The results go on:
molecule	H5N1 CPE
O=S(=O)(c1cccc(C(F)(F)F)c1)N1CCN(c2ccccc2)CC1	0.1
CC(C)CC1(C)NC(=O)NC1=O (stereo unspecified)	1.2
CC1CCN(C(=O)CSc2nc3c(cnn3-c3ccccc3)c(=O)[nH]2)CC1	1.9
COc1ccc(S(=O)(=O)Cc2ccc(C(=O)NCc3ccccn3)o2)cc1	1.9
OCCc1ccc(-c2ccc(Cl)cc2)o1	i
O=C(CCC(=O)c1ccccc1)Nc1cccnc1	i
O=C(NNC(=O)c1ccc([N+](=O)[O-])o1)c1ccccc1	i
Cc1cc(C)c2nc(N3CCCN(C(=O)c4ccco4)CC3)c(C#N)cc2c1	0.1
COc1ccc(Cl)cc1C(=O)Nn1c(C)nc2ccccc2c1=O	1.2
Cc1onc(-c2ccccc2Cl)c1C(=O)NCCCN1CCOCC1	0.2
Cc1cc(N/C=C\C(=O)c2ccc(Cl)c(Cl)c2)no1	1.0
O=S(=O)(c1ccccc1)c1cnn(-c2ccccc2)c1-c1ccc(F)cc1	0.2
Cc1cc(C(C)(C)C)oc1C(=O)N(CC(=O)NC1CCCC1)c1c(C)cccc1C	i
Cc1ccccc1S(=O)(=O)Oc1ccccc1C(=O)Oc1ccccc1	i
Cc1cc(C(C)(C)C)oc1C(=O)N(CC(=O)NC1CCCC1)Cc1ccccc1Cl	i
Cc1ccc(S(=O)(=O)Nc2ccccc2F)cc1C(=O)NCCCN1CCCC1=O	i
COc1cccc(C(C(=O)NC(C)(C)C)N(C(=O)CCC(=O)Nc2cc(C)on2)C(C)C)c1OC (stereo unspecified)	0.6
CCC(C(=O)O/N=C(\N)c1cccc(C)c1)c1ccccc1 (stereo unspecified)	0.2
N#CC(Nc1ccccc1)c1ccccc1OCc1ccccc1 (stereo unspecified)	i
Cc1cc(/C([O-])=C(/C(=S)Nc2ccccc2)[n+]2ccccc2)c(C)n1-c1ccccc1	i
COc1ccc(N2CCN(C(=O)c3ccc(C)cc3Cl)CC2)cc1	i
Nc1ccc(Oc2ccc3nc(-c4ccccc4)c(-c4ccccc4)nc3c2)cc1	i
CCNC(=O)/C(=C/c1ccc2c(c1)OCO2)NC(=O)c1ccc(Br)cc1	1.7
CCCc1cc(C(=O)NCCc2ccccc2)no1	i
CC(C)Oc1cccc(-c2nnc(SCC(=O)Nc3ccc4c(c3)OCCO4)n2N)c1	0.8
COc1ccc(NC(=O)Cn2cccc2)cc1Cl	i
CCOc1nc(NC(=O)NS(=O)(=O)Oc2ccccc2Cl)nc(-c2ccccc2)n1	1.7
COC(=O)C(C(=O)N1CCN(C)CC1)C1CCCCCC1 (stereo unspecified)	i
O=S(=O)(c1cccs1)N1CCN(c2ccccn2)CC1	0.6
O=C(CN1C(=O)CSC1=O)Nc1ccc(N2CCOCC2)cc1	2.0
CCOC(=O)c1c(N)sn(-c2ccccc2C)c1=S	i
Cc1cc(N2CCOCC2)nc2ccc(NC(=O)CCC(=O)N3CCC(C)CC3)cc12	1.5
Cn1c(C(=O)OC(C(=O)NC2CCCCC2)c2ccccn2)cc2sccc21 (stereo unspecified)	i
Nc1nc(-c2ccccc2)c(-c2ccccc2)s1	i
Cc1ccc(S(=O)(=O)NC(C)(C)CSc2nnc(N)s2)cc1	1.2
Cn1c(-c2cccc(Br)c2)cnc1NCc1cccnc1	i
O=C(Nc1cccc(F)c1)c1ccc(S(=O)(=O)N2CCCC2)cc1	i
CCOC(=O)CS(=O)(=O)c1nc(-c2ccc(F)cc2)cc(C(F)(F)F)n1	i
CCOC(=O)c1c(C)[nH]c(C(=O)COC(=O)C23CC4CC(CC(Cl)(C4)C2)C3)c1C	0.3
CCCCNC(=O)COC(=O)CCC(=O)c1ccc(F)cc1	i
Cc1cccc(-n2c(O)c(C=NCCCN3CCOCC3)c(=O)[nH]c2=O)c1C	i
CC#CCCCC(=O)Nc1cc(OC)nc(OC)n1	i
O=C(c1ccc(F)cc1F)N(Cc1ccccn1)Cc1ccco1	0.9
CC(C)N1C(=O)CCC1C(=O)N1CCC2(CC1)OCCO2 (stereo unspecified)	i
O=C1SC(c2ccccc2)=N/C1=C/c1ccco1	2.3
COc1cc(C(=O)Nc2sc(C(=O)N3CCOCC3)c(C)c2C#N)cc(OC)c1OC	i
O=C(CN1CCN(Cc2ccc(Cl)cc2)C1=O)N1CCC2(CC1)OCCO2	i

This is a subset; count on the stated rates, not on these rows.
